2A StopGo: High Throughput Screening for Foot and Mouth Disease Virus Antivirals. human cells with a luciferase reporter of 2A StopGo recoding; control for the full effect not named in the record. Potency, µM (top dose mostly 57.9 µM), for the others: top-dose signal change, negative = less light. actives 1.2% (n = 410,000); active = well fitted falling curve with a large enough effect; inconclusive = small, poorly fitted or top-dose-only effect; inactive = no such curve, though single readings can be large or run the other way; tested in HEK293T cells; further: on the % scale 0 is the no-effect control and ±100 the full control effect; nearly all actives have a fitted effect of over 45% in size; luciferase light after 4 h
SARS PLP yeast: qHTS of Yeast-based Assay for SARS-CoV PLP | Potency, µM (series often up to 32.9 µM), without a hit: top-dose activity, positive = growth rescue | S. cerevisiae expressing SARS-CoV PLpro, growth rescue; control for the full effect not named in the record | actives 0.19% (n = 330,000); further: 0% is about no effect; nearly all actives have a fitted effect of over 55% in size; growth read by luminescence after 48 h
RE007 growth inh: qHTS Assay for Inhibitors of the HIV-1 protein Vpr. Potency, µM (titrated, usually from 92.2 µM), for the others: at the highest dose activity change, negative = less growth. actives 0.21% (n = 360,000). AID 651644, 2012. S. pombe RE007 Vpr strain, BacTiter-Glo ATP luminescence, 24 h; control for the full effect not named in the record; active = well fitted falling curve with a large enough effect; inconclusive = small, poorly fitted or top-dose-only effect; inactive = no such curve, though single readings can be large or run the other way;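 further: on the % scale 0 is the no-effect control and ±100 the full control effect; nearly all actives have a fitted effect of over 50% in size; the assay follows cell death caused by Vpr and the record does not say whether a fall means rescue or toxicity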
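Fission yeast RE007 carrying one integrated HIV-1 vpr copy, seeded at OD 0.01 in PMG+AL medium with 23 nL pinned compound. Grown 24 h at 30 degrees; viability read by BacTiter-Glo luminescence after 5 min.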
Cruzain Triton: qHTS Assay for Promiscuous and Specific Inhibitors of Cruzain (with detergent) | Cruzipain (Trypanosoma cruzi), P25779 | purified cruzain, Z-FR-AMC fluorescence, 0.01% Triton | Potency, µM, for the others: max response, negative = inhibition, usual class: inhibitors | actives 0.43% (n = 200,000); active means well fitted curve in the direction sought with a large enough effect; inconclusive means small, poorly fitted or top-dose-only effect, or another doubt; inactive means no such curve, though single readings can be large; an effect the other way counts as inactive or inconclusive;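 further: plate controls were neutral wells for no effect and buffer without enzyme for full effect; nearly all actives have a fitted effect of over 40% in size; top concentration of the series not given in the record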
Target sequence (P25779 123-467 limits assumed): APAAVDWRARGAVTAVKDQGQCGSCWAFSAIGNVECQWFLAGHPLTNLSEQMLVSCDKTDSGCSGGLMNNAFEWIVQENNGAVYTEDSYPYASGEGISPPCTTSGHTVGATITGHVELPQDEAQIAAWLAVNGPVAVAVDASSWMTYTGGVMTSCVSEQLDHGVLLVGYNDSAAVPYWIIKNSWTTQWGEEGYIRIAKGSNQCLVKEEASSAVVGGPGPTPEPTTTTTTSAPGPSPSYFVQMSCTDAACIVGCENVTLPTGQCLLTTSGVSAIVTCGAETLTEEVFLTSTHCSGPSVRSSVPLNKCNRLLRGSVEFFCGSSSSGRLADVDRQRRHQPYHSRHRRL
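Detergent-containing run (0.01% Triton X-100) in acetate buffer pH 5.5 with 5 mM DTT: enzyme at 1.5 nM final, 15 min compound preincubation at room temperature, then 2 uM Z-FR-AMC substrate. Activity taken as 60 s fluorescence increase at 360/450 nm.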
NS1 inh: qHTS Assay for Inhibitors of Influenza NS1 Protein Function. S. cerevisiae slowed by influenza A NS1, growth recovery by OD600. Potency, µM (highest dose often 46.1 µM), inactives show top-dose activity, positive = more growth. actives 0.4% (n = 270,000); further: actives are rising curves; nearly all actives have a fitted effect of over 50% in size
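Recovery from NS1-induced slow growth read by OD600 in budding yeast switched to galactose assay medium (pH 6.0, -URA) at 1:100 dilution. Compound 23 nl per well; the matching strain lacking NS1 serves as control.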
MARV entry inh: qHTS for inhibitors of binding or entry into cells for Marburg Virus; Potency, µM (top dose mostly 37.8 µM), for the others: at the top dose activity change, negative = inhibition, actives largely listed as inhibitors; AID 540276, 2011; Marburg virus pseudotyped entry inhibition, cell reporter; control for the full effect not named in the record; about a third of the inactives were read at about 46 µM; actives 1.8% (n = 300,000); active = well fitted inhibition curve with a large enough effect; inconclusive = small, poorly fitted or top-dose-only effect, or effect the other way; inactive = flat fitted curve, though single readings scatter; tested in HEK293 cells; about a fifth of its hits are not listed in these tables; further: on the % scale 0 is the no-effect control and ±100 the full control effect; luciferase read-out
Lassa entry inh: qHTS for Inhibitors of binding or entry into cells for Lassa Virus; Lassa virus pseudotype entry inhibition, cell reporter; control for the full effect not named in the record; Potency, µM (titrated, usually from 37.9 µM), for the others: top-dose activity change, negative = inhibition, hits mostly inhibitors; actives 1.2% (n = 300,000); active means well fitted inhibition curve with a large enough effect; inconclusive means small, poorly fitted or top-dose-only effect, or effect the other way; inactive means flat fitted curve, though single readings scatter; tested in HEK293 cells; further: on the % scale 0 is the no-effect control and ±100 the full control effect; nearly all actives have a fitted effect of over 50% in size; luciferase read-out
Cruzain noTriton: qHTS Assay for Promiscuous and Specific Inhibitors of Cruzain (without detergent) | purified cruzain, Z-FR-AMC fluorescence, no detergent | Potency, µM, without a hit: max response, negative = inhibition, most hits filed as inhibitors | actives 2.3% (n = 200,000); active means well fitted curve in the direction sought with a large enough effect; inconclusive means small, poorly fitted or top-dose-only effect, or another doubt; inactive means no such curve, though single readings can be large; an effect the other way counts as inactive or inconclusive;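 further: plate controls were enzyme without inhibitor for no effect and buffer without enzyme for full effect; nearly all actives have a fitted effect of over 40% in size; top concentration of the series not given in the record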
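Purified cruzain at 1.5 nM, pre-incubated 15 min with compound at room temperature in 100 mM sodium acetate pH 5.5, 5 mM DTT, 0.00005% Triton X-100. Reaction started with 2 uM Z-FR-AMC; AMC fluorescence increase over 60 s gives rate.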
Active calls of the source: *; ? = inconclusive; nt = not tested or not shown; [ ] = dose if it differs, or a comment. Unless noted, the call rests on the fitted dose curve; in most records, active means well fitted rising curve with a large enough effect; inconclusive means small, poorly fitted or top-dose-only effect; inactive means no such curve, though single readings can be large or run the other way. Potency means the concentration at half of the fitted maximal effect. Not a hit list; any-hit rate near 4.7%.

SMILES | 2A StopGo | SARS PLP yeast | RE007 growth inh | Cruzain Triton | NS1 inh | MARV entry inh | Lassa entry inh | Cruzain noTriton
Cc1ccc(-c2nn(-c3ccccc3)cc2/C=C2\SC(=S)N(CC(=O)O)C2=O)cc1 | -26% | 0% | 2% | nt | 10% | nt | nt | nt
C[C@@H]1CC=C[C@@H]2[C@H]1C(=O)N(Cc1ccccc1)[C@H]2c1ccccc1Br | ? | -76% | 6% | -2.1% | nt | nt | nt | 6%
CCOC(=O)C1(C)C=C(Nc2cccc(OC)c2)C(=O)N1c1ccccc1 (stereo unspecified) | -15% | 0% | 0% | nt | -1% | 2%[14.2 µM] | 15% | nt
Cc1cccc2nc(CSc3ccc(Cl)cc3)cn12 | 21% | -1% | ? | nt | -33% | ? | ? | nt
Cc1cc(C)cc(C(=O)NCC(=O)OCC(=O)NC2CCCc3ccccc32)c1 (stereo unspecified) | -12% | 2% | 2% | nt | nt | -3%[46.1 µM] | 6%[46.1 µM] | nt
COc1ccc(C2=NN(C(=O)CSc3nnc(C)c(=O)n3N)C(c3ccco3)C2)cc1 (stereo unspecified) | 13% | -1% | 8% | nt | 2% | 22%[46.1 µM] | -21% | nt
Cc1ccoc1C(=O)N1CCN(C(=O)c2occc2C)CC1 | -11% | 1% | 10% | nt | -12% | 8%[46.1 µM] | -4%[46.1 µM] | nt
Cc1cnn(C(=S)NCc2ccc(Cl)cc2)c1 | 0% | -5% | ? | -29% | -53% | 19% | -3% | -28%
CC(=O)c1cccc(NC(=O)c2cc(=O)c3ccccc3o2)c1 | 7% | -3% | 2% | nt | -17% | nt | nt | nt
Cc1ccccc1-n1cc(CNC(=O)C2CCC(=O)N(C3CC3)C2)cn1 (stereo unspecified) | -21% | ? | -14% | nt | -7% | 0% | 19% | nt
CCC(=O)Nc1cc(-c2nn(C)c(=O)c3ccccc23)ccc1N1CCOCC1 | 13% | 7% | 45% | 2.7% | -6% | 9% | -14% | -1%
Cc1cc(C(C)(C)C)cc(C)c1C(=O)O | -20% | 1% | 9% | nt | 0% | -9% | 1% | nt
COCCNC(=O)C(=O)NCC1OCCN1S(=O)(=O)c1cc(F)ccc1F (stereo unspecified) | -22% | nt | -16% | nt | nt | -1%[46.1 µM] | 23%[46.1 µM] | nt
O=C(CCNC(=O)c1ccco1)Nc1ccc(OC(F)F)c(Cl)c1 | 4% | -2% | 17% | nt | -5% | 27%[46.1 µM] | 13%[46.1 µM] | nt
COc1cc(C(=O)NCCNC(=O)c2ccc(C)nc2)cc(OC)c1OC | -21% | 3% | 0% | nt | 3% | -1%[46.1 µM] | 5% | nt
Cc1ccc(-n2c(Cc3cccs3)nnc2SCC(N)=O)cc1 | 0% | -8% | 3% | 6.3% | 4% | 7% | 5% | 1%
O=C(NCC(c1cccnc1)N1CCN(c2ccc(F)cc2)CC1)C1CCCCC1 (stereo unspecified) | -26% | -5% | -10% | 5.7% | -18% | -27% | -28% | 3%
Cc1ccccc1C(=O)NC1CCN(Cc2nnnn2Cc2ccccc2)CC1 | -9% | 2% | 19% | -1.3% | -1% | 1% | 2% | -10%
O=C(Cn1c(=O)c2c(ncn2Cc2ccccc2)n(Cc2ccccc2)c1=O)N1CCCC1 | -4% | 3% | 19% | 0.3% | 8% | -3%[46.1 µM] | ? | ?
CCC(CC)C(=O)c1c[nH]c(C(=O)OC)c1 | 0% | -1% | 0% | nt | -1% | 4%[46.1 µM] | 22% | nt
Cc1cn(C2CC(O)C(CO)O2)c(=O)n(CCCc2ccccc2)c1=O (stereo unspecified) | 10% | nt | -7% | nt | nt | -5% | 8% | nt
N#C/C(=C\Nc1ccc(F)c(Cl)c1)S(=O)(=O)c1ccccn1 | 0% | 1% | 18% | nt | 1% | -6% | -10% | nt
CCCc1nc2c(=O)n(C)c(=O)nc-2n(C)n1 | 2.5µM* | -5% | -14% | nt | nt | ? | 1µM* | nt
CCN(C(=O)CSc1nnc(-c2ccccc2C)n1C)c1c(N)n(Cc2ccccc2)c(=O)[nH]c1=O | -15% | -1% | -8% | nt | nt | 2% | ? | nt
C=Cn1cc[n+](CC(=O)c2ccc(Br)cc2)c1 | 9% | -2% | 1% | nt | 7% | nt | nt | nt
CN1CCC(=NNC(=O)CN(c2cccc(Cl)c2)S(C)(=O)=O)CC1 | 16% | 4% | -5% | nt | nt | 10% | 10% | nt
COc1cc(C(=O)NC2CCCc3ccccc32)cc(OC)c1OC (stereo unspecified) | -2% | 2% | 1% | nt | -2% | -12%[46.1 µM] | -16% | nt
CCOc1ccc(/C=N\NC(=O)c2c(C)nc3cc(C)ccn23)cc1 | -9% | 9% | -11% | nt | -16% | ? | -24% | nt
CN1CCN(c2ccc(CNC(=O)c3ccco3)cc2)CC1 | -12% | -1% | -1% | nt | -1% | nt | nt | nt
Cc1ccc(-n2c(C)cc(C(=S)N3CCOCC3)c2C)cc1C | nt | 3% | -5% | -4.2% | 10% | ? | ? | 3%
COc1cc(-c2cc(C(=O)NCCc3ccc(S(N)(=O)=O)cc3)c3ccccc3n2)cc(OC)c1OC | 28% | 1% | -3% | nt | 5% | ? | 3% | nt
CCOc1ccc(N(CC(=O)Nc2ccccc2C(=O)NCc2ccco2)S(C)(=O)=O)cc1 | 8% | 2% | 12% | 2.9% | -10% | -27% | 1% | 23%
CC(C)c1nnc(NC(=O)CCC(=O)N2CCN(c3ccc(Cl)cc3)CC2)s1 | -27% | 0% | -1% | nt | -4% | -27%[46.1 µM] | -12%[46.1 µM] | nt
CCN(CC)C1=CC(=[N+]2CCCC2)CC(C)(C)C1 | ? | ? | -17% | -8.3% | 2% | 1.3µM* | ? | 0%
O=S(=O)(Nc1ccccc1F)c1ccc2nsnc2c1 | nt | 9% | -12% | -5.0% | -13% | -6% | -1% | -5%
CCOC(=O)c1ccc(N2C(=O)CC(N3CCN(C(=O)c4ccco4)CC3)C2=O)cc1 (stereo unspecified) | -7% | -11% | ? | -0.9% | -33% | 10% | -24% | 3%
CCN(CC)C(=O)CSc1nc2c(sc(=S)n2-c2ccc(C)cc2C)c(=O)[nH]1 | -20% | 1% | 1% | nt | 9% | -13%[46.1 µM] | -15%[46.1 µM] | nt
Cc1ccc(-c2nnc(SCC(=O)N3CCCC3)o2)cc1 | 56%[activator] | 6% | -9% | -2.2% | 6% | 11% | ? | 15%
C/C(CC(=O)NCc1ccccc1Cl)=N/NC(=O)c1ccccn1 | 47%[activator] | -2% | -24% | nt | 4% | ? | -19%[46.1 µM] | nt
C[N+]1(CC#CC(O)(c2ccccc2)c2ccccc2)CCCC1 | -14% | 10% | -12% | -1.2% | -2% | ? | -2% | -3%
COc1ccccc1CNC(=O)CCC(=O)Nc1nnc(C)s1 | -10% | 0% | -27% | -0.5% | -2% | 18% | 6% | -3%
CC/C(=N\NC(=O)c1ccc(-c2ccccc2)cc1)C12CC3CC(CC(C3)C1)C2 | 4% | -6% | -22% | -3.8% | 12% | -3% | ? | -1%
O=C(/C=C/c1ccc(F)cc1)NCCCN1CCN(CCCNC(=O)/C=C/c2ccc(F)cc2)CC1 | -14% | -1% | -24% | -3.8% | -4% | ? | 3% | 3%
CCCNC1=C(C)C(=O)CC1 | -20% | -4% | 13% | 3.9% | 5% | 11% | 7% | 1%
O=C(Nc1cc(S(=O)(=O)N2CCOCC2)ccc1N1CCOCC1)c1cc(=O)[nH]c2ccccc12 | 15% | -2% | -6% | nt | nt | -11%[46.1 µM] | -15% | nt
Cc1ccc2c(ccc(=S)n2C)c1 | 13% | 4% | -18% | nt | 1% | 6%[46.1 µM] | 5% | nt
COc1ccc(CCNCc2ccccc2N2CCCC2)cc1 | -21% | 0% | -26% | nt | 2% | ? | ? | nt
Cc1nc(SCC(=O)NCC(F)(F)F)c2c(-c3cccs3)csc2n1 | -6% | -24% | 0% | 1.5% | 7% | nt | nt | 12%
O=C(CN1c2cccc3cccc(c23)S1(=O)=O)Nc1ccc(F)c(F)c1F | -4% | 2% | -10% | nt | nt | ? | -1%[46.1 µM] | nt
O=C(CN1C(=O)S/C(=C\c2ccccc2)C1=O)NNC(=O)c1ccccc1O | 8% | 8% | 16% | -3.1% | 10% | 7% | ? | ?
CCN(CC)CCNc1nc2c(c(=O)n(C)c(=O)n2C)n1C/C=C(/C)Cl | -9% | -1% | 7% | -2.2% | -6% | ? | ? | -6%
CCOc1ccc(/C(O)=C2/C(=O)C(=O)N(CC3CCCO3)C2c2ccc(C)o2)cc1 (stereo unspecified) | -16% | 0% | -6% | 1.9% | 13% | 7% | 8% | -1%
CN(Cc1ccccc1)S(=O)(=O)c1ccc(Cl)c(C(=O)O)c1 | 0% | 1% | -11% | nt | nt | 2%[46.1 µM] | 13%[46.1 µM] | nt
C/C(=N\NC(=O)CC1N=C(Cc2ccccc2)NNC1=O)c1ccncc1 (stereo unspecified) | -8% | 0% | 1% | nt | 1% | nt | nt | nt
C/C(=N\N=C(N)N)c1cccc([N+](=O)[O-])c1 | -19% | -6% | 7% | -4.5% | -2% | -30% | 18% | -4%
CN(Cc1c(F)cccc1Cl)C(=O)c1cnc2ccccc2n1 | 118%[activator] | -4% | 10% | nt | -7% | ? | 9% | nt
CC(=O)N(c1nc(CCl)cs1)c1cccc(C)c1C | 23% | 0% | 3% | nt | 12% | 0%[46.1 µM] | -8%[46.1 µM] | nt
O=C(NCc1cccc(C(F)(F)F)c1)c1ccc2c(c1)OCO2 | 11% | -7% | 3% | nt | -42% | nt | nt | nt
COc1cc(C(=O)N(Cc2ccc(N(C)C)cc2)C2CCS(=O)(=O)C2)cc(OC)c1OC (stereo unspecified) | -3% | 2% | 0% | -2.2% | -6% | -15% | 7% | 4%
CCCCOc1ccc(C(=O)N=c2sccn2C)cc1OC | 40%[activator] | -6% | -7% | nt | -31% | nt | nt | nt
O=C(O)c1ccc(S(=O)(=O)N2CCc3ccccc3C2)cc1 | -3% | 3% | -6% | nt | -15% | nt | nt | nt
